HNF4A DNA FP: change in binding of human HNF4 alpha to DNA; 360,000 compounds, 0.3% hits; activity change, % at 10 µM; HNF4a-FITC DNA binding, fluorescence polarization, 1 h; in the data active = activity change above about 30%, passing the limit was not always enough;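 note: controls were the assay level and a saturating level of protein; the project sought stronger binding though the title names inhibitors; some compounds called inactive have numbers as strong as hits; positive values seem to mean higher polarization but the record does not say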
Target sequence (P41235 whole entry, looked up): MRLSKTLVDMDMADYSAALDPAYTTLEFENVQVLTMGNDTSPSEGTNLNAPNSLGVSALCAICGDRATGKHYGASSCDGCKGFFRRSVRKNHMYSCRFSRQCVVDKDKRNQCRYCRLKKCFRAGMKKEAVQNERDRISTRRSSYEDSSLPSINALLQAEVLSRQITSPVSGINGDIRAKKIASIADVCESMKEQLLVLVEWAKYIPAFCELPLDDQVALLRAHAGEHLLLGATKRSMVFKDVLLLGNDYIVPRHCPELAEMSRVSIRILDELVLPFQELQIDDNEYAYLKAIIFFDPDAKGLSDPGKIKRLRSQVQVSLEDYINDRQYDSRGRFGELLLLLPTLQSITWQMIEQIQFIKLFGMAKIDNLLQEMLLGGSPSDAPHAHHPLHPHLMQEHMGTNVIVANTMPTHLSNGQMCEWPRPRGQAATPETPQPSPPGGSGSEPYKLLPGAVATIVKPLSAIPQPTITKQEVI
MLL AF4-AF9 inh: blocks AF4 peptide binding to human AF9; AlphaScreen, biotin-AF4 peptide binding to FLAG-AF9; inhibition, % at 10 µM; 350,000 compounds, 0.47% hits; AID 651704;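 active = every replicate reaching a set inhibition limit, whatever the replicate mean, cut at about 25% in these data; inconclusive = mean inhibition reaches that limit but some replicates miss it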;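 note: 0% = plate neutral control median and 100% = total signal loss; the record names both 10 and 1 µM as test concentration; the first replicate is given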
Target sequence (P42568 whole entry, looked up): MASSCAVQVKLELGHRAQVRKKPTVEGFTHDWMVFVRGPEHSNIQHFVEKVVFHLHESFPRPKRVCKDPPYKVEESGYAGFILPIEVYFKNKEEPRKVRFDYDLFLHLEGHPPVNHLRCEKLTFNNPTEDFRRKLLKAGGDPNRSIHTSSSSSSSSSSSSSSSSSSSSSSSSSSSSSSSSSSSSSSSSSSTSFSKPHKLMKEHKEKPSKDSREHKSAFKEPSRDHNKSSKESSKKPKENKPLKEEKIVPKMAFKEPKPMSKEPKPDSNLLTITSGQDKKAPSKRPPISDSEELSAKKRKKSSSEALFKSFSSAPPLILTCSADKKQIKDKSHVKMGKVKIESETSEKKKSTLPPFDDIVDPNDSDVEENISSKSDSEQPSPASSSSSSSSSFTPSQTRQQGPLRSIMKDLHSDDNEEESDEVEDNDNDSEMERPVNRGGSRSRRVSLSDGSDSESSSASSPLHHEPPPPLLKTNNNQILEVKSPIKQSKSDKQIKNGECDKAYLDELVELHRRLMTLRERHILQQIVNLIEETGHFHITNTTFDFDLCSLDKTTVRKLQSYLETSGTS
FGF22 binding: shifts melting point of recombinant human FGF22; AID 651658; calls only at 9.99 µM; 340,000 compounds, 1.5% hits; recombinant FGF22 thermal shift, SYPRO orange fluorescence; percent of sucrose octasulfate shift, DMSO zero;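 active = melting point raised past a set limit in the mean and every replicate; inconclusive = no clear call; three in four hits are not shown here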
E coli growth: inhibitors of Escherichia coli growth. OD600, 23 h; stronger effect = lower value. OD600 absorbance (test concentration not listed). 330,000 compounds, 0.21% hits;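 active = OD600 absorbance below the run mean of sample wells minus 3.6 SD, in any replicate, cut at about 0.56 in these data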;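 note: stock transfer was 300 nL into about 60 µL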
Vif TR-FRET: inhibitors of Vif binding to APOBEC3G peptide, primary screen, biochemical, TR-FRET, GST-Vif 1-94, biotin-A3G peptide, dose response retest (AID 1117319) | TR-FRET GST-Vif / biotin-A3G peptide binding; higher % means a stronger effect; test concentration not given here; strong numbers were not always called active | one-dose inhibition, %; IC50 in µM for titrated hits | 260,000 compounds, 0.57% hits;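 active = above the screen mean plus three standard deviations and confirmed in dose response; inconclusive = results disagree or hit not tested in dose response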;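 note: Vif residues 1-94 fused to GST binding biotinylated APOBEC3G peptide 110-148; 0% = full assay without inhibitor and 100% = GST in place of GST-Vif; retest series ran down from 100 µM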
RanGTP-Imp inh: inhibitors of RanGTP-importin-beta interaction, primary screen, biochemical, FRET, CFP-Ran, YFP-importin-beta, homogeneous. AID 2216. 300,000 compounds, 1.1% hits. cell-free CFP-Ran/YFP-importin-beta FRET ratio. inhibition, % (no concentration beside the values);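 active = most replicates above 15%; inconclusive = exactly half above 15%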;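 note: 0% = DMSO wells and 100% = Ran loaded with GDP instead of GTP; wells of about 40 µL received 100 nL stock; the first replicate is given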
UCH37 DUB inh: blocks the human deubiquitinase UCH37 | 330,000 compounds, 0.33% hits | purified proteasome/UCH37, Ub-AMC cleavage fluorescence | Q9Y5K5 | inhibition, % (concentration not given with the values);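 active = mean of two replicates above 20%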;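 note: 0% = compound-free wells with enzyme and 100% = wells lacking proteasome; stock transfer was 100 nL into about 20 µL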
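Material: Human UCH37 enzyme supplied as purified proteasome complex | Schedule: 30 min compound-proteasome preincubation then 25 min substrate reaction, room temperature | Detection: AMC fluorescence from Ub-AMC cleavage, excitation 355 nm, emission 460 nm | Benchmarks: Wells without proteasome as full block, compound-free enzyme plus substrate as uninhibited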
Starred values were filed as active, the others as inactive; i = inactive; ? = inconclusive; . = not tested or not shown; & = joins results of further samples. Not all compounds are listed (hit frequency here may not be typical).

SMILES	HNF4A DNA FP	MLL AF4-AF9 inh	FGF22 binding	E coli growth	Vif TR-FRET	RanGTP-Imp inh	UCH37 DUB inh
O=C(CN1C(=O)/C(=C/c2ccco2)SC1=S)Nc1ccc(O)c(C(=O)O)c1	-28	-3.8	.	0.71	.	-0.6	11
COc1ccc(/C=N/Nc2nonc2N)c(OC)c1	-1.9	0.5	i	.	5%	?	.
Cc1ccc(NC(=O)c2ccc(CN3CC(=O)N4CCCCC4C3=O)cc2)c(C)c1 (stereo unspecified)	-0.2	5.5	i	0.71	.	0.4	0.4
CC(C)SC1=NC(C)(C)C=C(/C=C/c2c(Cl)cccc2Cl)N1	2.2	.	.	0.77	-1%	0.0	6.6
Cc1cc(Cl)c(OCCCNC2CCCC2)c(Br)c1	2.7	3.2	i	0.63	.	-2.0	3.1
CN(CC1CCCN(CCc2ccc(F)cc2)C1)C(=O)CCC(F)(F)F (stereo unspecified)	-2.3	0.9	i	0.67	.	0.3	0.7
COc1ccc(C)cc1N(C(=O)c1cccc(F)c1)c1nc2ccccc2s1	-0.2	.	.	0.68	.	.	4.9
Cc1ccc(N(Cc2ccccc2)C(=O)c2cc(S(=O)(=O)N3CCOCC3)ccc2C)cc1	2.8	1.2	i	0.71	5%	0.0	3.4
C1=C(CCNc2ncnc3c2[nH]c2ccccc23)CCCC1	4.7	-9.7	i	0.54	.	.	-5.4
CCOC(=O)N1CCN(C(=O)COc2cccc3c2CCN(CC)C3=O)CC1	-2.8	0.6	i	0.68	2%	2.9	1.9
COc1cc(C2CC(=O)Oc3c2c(=O)n(C)c2ccccc32)ccc1O (stereo unspecified)	-4.4	-3.5	i	0.68	13%	6.3	1.1
CC(C)CCNC(=O)C1CCN(c2nnc(-n3cccc3)s2)CC1	2.1	-1.9	i	0.71	0%	?	6.6
Nc1nnc(-c2cn(-c3ccccc3)nc2-c2ccccc2)o1	3.6	.	.	0.67	13%	2.6	1.6
CC(C)c1cc(C(=O)NCc2cccnc2)no1	-3.2	0.8	i	0.71	7%	-3.9	-0.8
O=C(Nc1ccc(O)cc1)c1ccc2c(c1)C(=O)N(N1C(=O)c3ccccc3C1=O)C2=O	0.2	-5.1	i	0.65	0%	4.5	2.0
CCc1nc2c(OCc3ccccc3)cccn2c1N(C)C(=O)C(C)C	3.1	0.7	i	.	.	.	.
O=C(OCC1OC(n2ncc(=O)[nH]c2=O)C(OC(=O)c2ccccc2)C1OC(=O)c1ccccc1)c1ccccc1 (stereo unspecified)	7.7	0.4	i	0.77	.	-1.5	4.1
O=C(Nc1cccnc1)Nc1cc(Cl)cc(Cl)c1	5.2	-2.0	i	0.5*	1%	-3.3	3.7
NC(=O)c1c(NC(=O)c2ccncc2)sc2c1CCCC2	-2.7	2.4	i	0.66	4%	2.1	2.0
CC1(C)CC(=O)C([N+](=O)[O-])=C(NCCCO)C1	6.0	5.6	i	0.7	.	2.4	10
CCCCc1nc2cc(C(=O)N3CCN(c4nc(C)cnc4C)CC3)ccc2o1	2.4	2.6	i	0.64	.	12	2.4
O=C(NCCc1ccccc1)c1ccc2c(=O)[nH]c3c(C(=O)NCC4CCCO4)sc(=S)n3c2c1 (stereo unspecified)	6.7	-0.4	i	.	.	7.5	.
O=S(=O)(NCc1ccc2c(c1)OCO2)c1cccc(S(=O)(=O)N2CCOCC2)c1	-2.1	.	.	0.7	67%	-12	0.6
Cc1nc2oc3c(NCc4ccccn4)ncnc3c2c2c1COC(C)(C)C2	2.8	.	.	0.72	26%	9.3	-46

Entries listed so far containing a furan ring, fused or not:
SMILES	HNF4A DNA FP	MLL AF4-AF9 inh	FGF22 binding	E coli growth	Vif TR-FRET	RanGTP-Imp inh	UCH37 DUB inh
O=C(CN1C(=O)/C(=C/c2ccco2)SC1=S)Nc1ccc(O)c(C(=O)O)c1	-28	-3.8	.	0.71	.	-0.6	11
Cc1nc2oc3c(NCc4ccccn4)ncnc3c2c2c1COC(C)(C)C2	2.8	.	.	0.72	26%	9.3	-46

Continuation.
SMILES	HNF4A DNA FP	MLL AF4-AF9 inh	FGF22 binding	E coli growth	Vif TR-FRET	RanGTP-Imp inh	UCH37 DUB inh
Cc1cc(C(=O)N/N=C/c2cc(Br)c(Br)o2)n[nH]1	-13	8.8	i	.	.	-1.4	.
O=C(CSc1nnc(-c2ccncc2)n1C1CCCCC1)Nc1ccccc1	0.0	.	.	0.72	-8%	5.2	1.8
CC1=CC(C)C2C(=O)N(CCCN(C)C)C(=O)C2C1 (stereo unspecified)	-0.9	.	.	0.78	69%	-4.4	3.1
CCN(CC(=O)Nc1c(F)cccc1F)C(=O)CN1C(=O)c2ccccc2C1=O	1.3	3.9	i	0.66	-4%	-1.4	4.2
CC(=O)CCCC(NS(=O)(=O)CCC(Cl)(Cl)Cl)c1ccccc1 (stereo unspecified)	-2.5	-0.9	i	.	.	1.5	0.9
Cn1cnc([N+](=O)[O-])c1Sc1ncccc1N	0.1	.	.	0.71	2%	-3.3	9.4
O=C(COC(=O)CCN1C(=O)c2ccccc2C1=O)Nc1ccccc1[N+](=O)[O-]	-2.3	0.0	i	0.7	.	.	1.2
COC(=O)C(C(=O)Nc1ccc(OC)cc1)C1CCCCCC1 (stereo unspecified)	0.5	.	.	0.75	65%	-2.1	-7.6
Nc1nc(CSc2nnnn2-c2ccc(Cl)cc2)nc(N2CCOCC2)n1	4.1	.	.	0.75	-4%	20*	-1.3
COc1cccc(CNC(=O)[C@@H]2CCCN2C(=O)[C@H]2CCCCN2C(=O)c2ccccc2)c1	5.4	-0.4	i	.	.	.	.
O=C(CCN1C(=O)S/C(=C\c2ccccc2)C1=O)N1CCOCC1	-1.1	.	.	0.75	.	-1.2	9.0
COc1cc(Cl)c(S(=O)(=O)NCCN2CCOCC2)cc1Cl	-0.1	.	.	0.67	9%	-3.8	3.1
COc1cc(C2NC(=O)NC(C)=C2C(=O)OCc2ccc(C)cc2)cc(OC)c1OC (stereo unspecified)	5.0	4.2	i	0.64	-7%	29*	1.9
O=C(NCc1ccco1)c1ccc(-c2ccc(F)c(F)c2)c2ccoc12	6.9	1.4	i	.	.	.	.
Cc1ccc(/C=N/NC(=O)C2CCN(Cc3ccc(F)cc3Cl)CC2)o1	4.1	.	.	.	-2%	-3.5	.
COc1cccc(-c2nnc3sc(-c4ccccn4)nn23)c1	-2.7	.	.	0.76	-11%	-1.6	-0.5
CCOCCCNC(=O)c1cc2c(=O)n(CC)c3ccccc3c2s1	0.7	-1.6	i	0.66	-11%	-5.5	-241
CC12CCC(C(=O)Nc3ccc4c(c3)OCCO4)(OC1=O)C2(C)C (stereo unspecified)	-0.5	.	.	0.7	14%	-1.6	2.1
Cc1cc(C(=O)NC2CCCCC2)c(C)n1-c1ccc(F)cc1	0.4	.	.	0.65	25%	-0.9	1.6
COCCNC(=O)CCc1c(C)nc2nc(-c3cc(OC)cc(OC)c3)nn2c1C	-4.7	1.3	i	0.67	4%	1.1	-0.4
C=CCNC(=O)CCCc1ccccc1	-2.3	.	.	0.66	13%	3.5	2.6
CN(C)CCC(c1ccc(Br)cc1)c1ccccn1 (stereo unspecified)	2.6&-5.8&1.3	-2.5&-1.0&-1.6	i	0.62&0.66&0.66	?	8.6	1.1&0.6
Cc1cc(C)nc(-n2ncc3c2CC(C)CC3=O)n1 (stereo unspecified)	-3.9	0.8	i	0.66	-3%	0.2	2.3
CCOC(=O)C1=NOC(CNC(=O)c2ccccc2Cl)C1 (stereo unspecified)	-0.8	-3.1	i	0.71	-7%	-0.6	-0.9
CCn1nccc1C(=O)Nc1nccs1	-1.4	.	.	0.68	19%	.	0.5
CCCc1cnc(N2CCN(C(=O)c3ccc(F)cc3)CC2)nc1	-0.3	0.6	i	0.69	-5%	0.9	-4.3
Cc1ccc(OCCNc2cc(N3CCN(CCO)CC3)ccc2[N+](=O)[O-])cc1C	1.9	.	.	0.64	-1%	3.7	11
CCOC(=O)c1cnc(-n2nc(C)cc2C)nc1Oc1ccc(C#N)cc1	-0.4	-3.1	i	0.74	-4%	5.2	-0.4
CCc1ccccc1N1C(=O)c2ccccc2S1(=O)=O	3.5	.	.	0.73	-2%	-5.2	-1.0
COc1ccc(S(=O)(=O)N2CCCC2)cc1OC	-0.4	0.5	i	0.7	-6%	-1.1	-0.1
O=C1Nc2ccccc2C12Nc1ccccc1-c1nc3ccccc3n12 (stereo unspecified)	-2.9	.	.	0.73	?	-0.8	-2.7
Cc1cccc(N2C(=O)C3CCCN3C2=S)c1C (stereo unspecified)	-2.0	1.7	i	0.71	-14%	.	1.1
Cn1c(=O)c2c(nc(CN3CCCCC3)n2Cc2c(F)cccc2Cl)n(C)c1=O	0.9	9.3	i	0.7	-7%	.	0.8
Cc1ccc2c(c1)sc1nc(=O)n(-c3cccc(Cl)c3)c(=O)n12	1.8	.	.	0.7	-5%	2.3	4.7
CCOC(=O)CN(C(=O)CSc1nnc(C)n1-c1ccccc1)c1ccccc1	-1.1	.	.	0.68	5%	0.9	1.3
CCS(=O)(=O)N1CCN(C(=O)c2cccs2)CC1	-1.0	.	.	0.68	24%	?	3.0
Nc1nc(Cl)cc(N2CCCC2)n1	-3.5	-1.0	.	0.7	5%	?	7.2
O=C(O)c1ccc(/C=C2/SC(=S)N(Cc3ccccc3)C2=O)cc1	-3.5	2.7	i	0.67	-1%	-1.9	8.7
CCOC(=O)c1c(C)c(C)n(Cc2cccc(OC)c2OC)c1C	2.8	3.0	i	0.61	-1%	-3.4	1.6
CCN(CC)CCCNc1oc(/C=C/c2ccccc2)nc1C#N	1.3	8.1	i	0.63	-10%	2.2	i
O=C(O)c1ccc2c(c1)C(=O)N(C(Cc1ccccc1)C(=O)O)C2=O (stereo unspecified)	-1.0	.	.	0.7	7%	2.4	1.6
Cc1c(C(=O)N2CCN(C3CCS(=O)(=O)C3)CC2)oc2c(F)cccc12 (stereo unspecified)	0.3	0.0	i	0.67	5%	.	2.3
CCCCN(CCCC)CCCNC(=O)c1ccc2nc(-c3ccccc3NC(C)=O)c(=O)[nH]c2c1	-0.3	0.2	i	0.65	-8%	-1.6	-0.9
CC(C)N(C)c1ncnc2c1ncn2[C@H]1CN(Cc2ccc(-c3ccccc3)cc2)C[C@@H](CO)O1	1.6	-2.2	i	.	.	.	.
CCOC(=O)C1C(=O)NC(N2CCN(Cc3ccccc3)CC2)=NC1c1ccco1 (stereo unspecified)	3.4	.	.	0.66	25%	6.9	0.5
O=C(N1CCN(c2ccccn2)CC1)N1c2ccccc2Sc2ccccc21	22	.	.	0.75	2%	3.2	3.1
Cc1cc(C)cc(NC(=O)CN2CCN(CCN=CC3=C(O)CC(C)(C)CC3=O)CC2)c1	-0.7	.	.	0.69	2%	2.5	4.7
COc1cccc(-c2cc(C(=O)NC3CC3)c3ccccc3n2)c1	-3.4	-20	i	0.73	.	19*	4.4
O=C(C1CC1)N1CCc2cc(S(=O)(=O)N(CCO)Cc3ccccc3)ccc21	1.1	.	.	0.72	-2%	?	-3.6
COc1cccc(CNC(=O)Cn2ccc3cc(S(=O)(=O)N4CCCC4)ccc32)c1OC	-1.1	-16	i	0.66	5%	1.7	2.8
Cc1cc(SCC(=O)Nc2cccc(S(N)(=O)=O)c2)c(C)cc1Br	4.0	2.5	i	0.67	-12%	13	6.1
CCc1ccc(NC(=O)CN2CCc3ccccc3C2)cc1	2.8	.	.	0.66	3%	1.8	1.5
COCCNC(=S)N1CCCN(c2nc3cc(C)ccc3cc2C#N)CC1	1.3	-1.6	i	0.66	3%	18*	-21
